Assay outcomes as filed in PubChem BioAssay.
Sa RN4220 lethal: kills Staphylococcus aureus RN4220. AID 1259311. S. aureus RN4220 growth, OD600, 16 h. inhibition, % (no concentration beside the values). actives 0.33% (n = 330,000);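 active means z-score of -3 or lower and OD600 up to 0.18 on both plates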;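 further: plate controls were untreated cells for no effect and reference antibiotic for full effect; stock transfer was 100 nL into about 80 µL; one replicate is shown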
Mtb hypoxia inh: Mtb hypoxia fluorescent reporter inhibition; fluorescence inhibition, % (concentration not given with the values); actives 0.1% (n = 300,000); M. tuberculosis hypoxia-regulated fluorescent reporter, fluorescence;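 active means 35 to 45% if threefold the growth effect, above 45% if 1.5-fold the growth effect; inactive means the rest, general growth blockers included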;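 further: wells of about 50 µL received 100 nL stock; 0% = vehicle wells and 100% = reference inhibitor wells; whole bacteria with a GFP reporter of the hypoxia response; strong numbers were not always called active; many hits fall short of the cut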
Sa ugtP lethal: growth inhibition of S. aureus ugtP deletion strain. S. aureus RN4220 ugtP deletion, OD600 growth, 16 h; some inactives read as strong as hits. growth inhibition, % (concentration not given with the values). actives 0.54% (n = 330,000). AID 1259309;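 active means z-score under -3 and OD600 up to 0.15 on both plates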;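 further: plate controls were untreated wells for no effect and antibiotic for full effect; wells of about 80 µL received 100 nL stock; the first replicate is given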
PrP UTR inh: inhibition of PrP 5' UTR reporter expression | actives 0.35% (n = 340,000) | inhibition, % (test concentration not listed) | cell-based PrP 5' UTR mRNA reporter, plate reader | AID 488862;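 active means every replicate at 50% or more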;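 further: 0 = median of the neutral control wells; tested in H4 reporter cells; numbers are from one replicate; inactives centre near -14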
BJeLR viability: kills HRASV12-expressing BJeLR cells; BJeLR (HRASV12) viability, CellTiter-Glo ATP luminescence, 48 h; reference of the scale not given here; inhibition, % (no concentration beside the values); actives 0.17% (n = 300,000);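 active means replicate mean above 50%; inconclusive means above 50% but judged a plate artefact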;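 further: 50 nL library stock added to about 25 µL; numbers are from one replicate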
Autofluor counter: flagged as autofluorescent in microsphere protease counterscreen; compound autofluorescence counterscreen, microsphere flow cytometry; active compounds read high; fluorescence intensity (no concentration beside the values); actives 3.1% (n = 360,000);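 active means at least 3 SD above the mean of all compounds, about 16000 in these data; inconclusive means too few beads counted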;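 further: 100 nL of 1 mM stock went into each well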
Mtb hypoxia inh growth: further read-out of Mtb hypoxia inh, marked with its call; growth inhibition, %; measured here: M. tuberculosis growth (absorbance);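 0% = vehicle and 100% = reference antibiotic; read after six days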
* hit, by the source's call; ? = inconclusive; · = no result given.

| SMILES | Sa RN4220 lethal | Mtb hypoxia inh | Mtb hypoxia inh growth | Sa ugtP lethal | PrP UTR inh | BJeLR viability | Autofluor counter |
| --- | --- | --- | --- | --- | --- | --- | --- |
| O=c1cc[nH]c2ccc(OC(F)(F)F)cc12 | 3.7 | -7.8 | -4.5 | -0.6 | -5.9 | 0.8 | 5041 |
| CCn1c(-c2cc(OC)ccc2OC)csc1=Nc1c(C)n(C)n(-c2ccccc2)c1=O | 3.6 | 6.1 | 4.4 | -1.2 | -9.7 | -2.5 | 2825 |
| Cc1ccc(C2CC(C(F)(F)F)n3nc(C(=O)NCC4CCCO4)cc3N2)cc1 (stereo unspecified) | 5.4 | -1.1 | 2.8 | 3.3 | · | 6.2 | · |
| Cc1ccc(-n2c(=O)c3sccc3n(CC(=O)NCc3ccco3)c2=O)cc1F | 2.9 | 3.0 | 0.5 | -3.1 | 1.4 | 9.7 | 9554 |
| FC(F)(F)c1cccc(OCC2CNC(=S)O2)c1 (stereo unspecified) | 2.8 | 12.3 | -0.3 | -0.3 | -11.7 | 2.7 | 3700 |
| CCOC(=O)Cc1csc(/N=C/c2c(O)n(-c3ccccc3C(F)(F)F)c(=O)c3ccccc23)n1 | 3.4 | 3.1 | 3.7 | 1.7 | -5.2 | 0.5 | 1940 |
| Cc1cc(C)n(-c2nc3ccccc3nc2N2CCC(C)CC2)n1 | 19.1 | 12.2 | 11.1 | 19.9 | -18.5 | -1.4 | 22810* |
| CCn1nc(C(=O)NNC(=O)C(Cc2ccccc2)NC(N)=O)c2ccccc2c1=O (stereo unspecified) | 4.9 | 8.6 | 5.7 | 9.0 | -26.3 | · | 3078 |
| O=[N+]([O-])c1ccccc1NN=C1CCc2ccccc21 | 8.6 | 10.8 | 7.2 | 2.2 | · | · | · |
| COc1ccc(CC(=O)NC(C)c2ccc3ccccc3c2)cc1 (stereo unspecified) | 0.9 | -0.6 | -1.0 | 11.5 | -20.5 | 7.1 | 3383 |

Copied from the list:
Reading of CCOC(=O)Cc1csc(/N=C/c2c(O)n(-c3ccccc3C(F)(F)F)c(=O)c3ccccc23)n1 under PrP UTR inh: -5.2
Reading of Cc1ccc(-n2c(=O)c3sccc3n(CC(=O)NCc3ccco3)c2=O)cc1F under Mtb hypoxia inh: 3.0

Continued.
| SMILES | Sa RN4220 lethal | Mtb hypoxia inh | Mtb hypoxia inh growth | Sa ugtP lethal | PrP UTR inh | BJeLR viability | Autofluor counter |
| --- | --- | --- | --- | --- | --- | --- | --- |
| O=C(CSc1nc2scc(-c3ccco3)c2c(=O)n1-c1ccccc1)N1CCOCC1 | 0.5 | 5.0 | 5.5 | 8.9 | -30.3 | 4.1 | 21589* |
| COc1ccc(C(=O)Nn2cnnc2)cc1 | -3.5 | · | · | 5.9 | -54.1 | 1.9 | 4248 |
| Cc1ccccc1NC(=O)NCc1ccccn1 | 2.1 | 13.2 | 2.6 | 4.6 | -32.0 | 3.7 | 4111 |
| Cc1cc(C)cc(-n2nnnc2-c2cn(C)nc2C(F)(F)F)c1 | 11.6 | 2.1 | 8.3 | -12.1 | -22.5 | -0.1 | 3287 |
| CCC1CCCCN1CCCNC(=O)c1ccc(CS(=O)(=O)c2ccccc2OC)o1 (stereo unspecified) | 3.3 | 10.0 | 2.9 | 2.5 | -9.9 | 3.6 | 5213 |
| N#CCCCCn1c(-c2cncs2)nc2ccccc21 | 2.7 | · | · | 4.1 | -2.4 | -4.0 | 3880 |
| C=CCN1C(=O)C2C(C(=O)NCc3ccccc3)C3(C)C=CC2(O3)C1C(=O)NC(C)(C)C (stereo unspecified) | 4.6 | 17.9 | 12.0 | -2.6 | -27.5 | -1.5 | 4331 |
| C/C(=N\OCC(=O)Nn1c(=O)[nH]c2ccccc2c1=O)c1ccccc1 | · | · | · | · | -11.5 | -9.2 | 2471 |
| Cc1noc(C)c1CSCC(=O)N(C)CC(=O)Nc1ccccc1Br | 1.6 | 0.6 | -10.3 | -0.1 | -14.7 | -0.8 | 6983 |
| CCOc1ccc(C(=O)CSCCC(=O)O)cc1 | 1.8 | -9.7 | 7.4 | 7.1 | 23.5 | -11.7 | 2636 |
| S=C(NN=Cc1cccc2ccccc12)Nc1cccc(Cl)c1 | -5.5 | 11.6 | 12.1 | 14.6 | · | · | · |
| CCOC(=O)N1CCN(c2c(N3CCN(c4ccc(OC)cc4)CC3)c(=O)c2=O)CC1 | 0.3 | -4.2 | -8.9 | -5.3 | -22.8 | -10.1 | 5320 |
| Cc1cccc(C2c3[nH]c4ccccc4c3CCN2C(=O)CN2CCOC2=O)n1 (stereo unspecified) | 3.3 | 9.0 | 3.0 | 7.9 | -24.3 | 7.9 | 3445 |
| O=C(Cc1ccc(Cl)cc1)c1c[nH]c(C(=O)NCCCn2ccnc2)c1 | 5.1 | 8.6 | 2.4 | 7.6 | -17.6 | 3.3 | 4543 |
| COc1ccc(OCCCC(=O)ON=C(N)c2ccccc2Cl)cc1 | 1.7 | 2.7 | -3.2 | 5.9 | 11.8 | · | 3505 |
| Cc1cccc(NC(=S)NCCc2c[nH]c3ccccc23)c1 | 1.3 | -6.0 | 1.7 | 6.6 | -8.3 | -9.1 | 2252 |
| O=C(/C=C/c1cnc2ccccc2n1)NC1CCCCCC1 | 4.3 | 4.0 | 9.3 | -2.0 | -96.8 | -0.8 | 2755 |
| CCn1c(SCCC(C)C)nnc1-c1c[nH]c2ccccc12 | -14.7 | 0.6 | -2.3 | -3.7 | -7.1 | -11.5 | 4329 |
| Cc1nn(CC(=O)NCCc2ccc(Cl)cc2)c(=O)c2cccn12 | 4.8 | -4.5 | -0.8 | -0.5 | -26.0 | -3.1 | 5233 |
| COc1ccc(CNC(=O)CN(Cc2ccccc2)C(=O)CCC(=O)Nc2ccccn2)cc1 | 1.3 | -6.1 | 3.1 | 6.7 | -14.1 | -3.6 | 3458 |
| COc1cc(NC(=O)Cn2ccsc2=N)cc(OC)c1 | 3.7 | 11.3 | 7.8 | 2.8 | -10.5 | -1.6 | 5539 |
| CC(C(=O)Nc1nccs1)N1C(=O)c2ccccc2S1(=O)=O (stereo unspecified) | 0.8 | 0.7 | 3.3 | 2.7 | -7.6 | 7.6 | · |
| OCC(O)C1OC(c2ccco2)OC(CO)C1O (stereo unspecified) | 3.8 | 17.6 | 8.4 | 6.7 | -21.2 | · | 3012 |
| O=C(c1nc2ccccn2c1CN1CCCC(OCc2ccccc2)C1)N1CCCC1 (stereo unspecified) | 2.4 | 4.5 | 16.4 | 3.1 | -42.1 | -3.4 | 2776 |
| O=C1COc2ccc(C(=O)COC(=O)c3ccco3)cc2N1 | 2.7 | 4.9 | 8.9 | 6.1 | -25.2 | 13.1 | 4872 |
| COc1ccc(CCN2CC(C(=O)NCCc3ccc(C(F)(F)F)cc3)CCC2=O)cc1 (stereo unspecified) | -3.2 | -3.0 | 9.1 | -7.9 | 1.1 | 5.2 | 6015 |
| Cc1ccc(Sc2ccc(C(=O)NC(C)C)cc2[N+](=O)[O-])cc1 | 2.1 | · | · | 9.1 | 0.8 | 1.5 | 3491 |
| C=CCNc1nc2c(c(=O)[nH]c(=O)n2C)n1CCCCC | -10.3 | 17.5 | 15.5 | -2.4 | -10.4 | -3.9 | 2842 |
| OC(CNCc1cccs1)c1ccccc1 (stereo unspecified) | 2.8 | 19.1 | 6.6 | 4.1 | -30.9 | -5.4 | 3579 |
| O=C1CN(C(=O)COc2ccccc2Cl)c2ccccc2N1 | 3.8 | 3.8 | 8.1 | 3.7 | -7.2 | · | ? |
| O=C(c1ccc2c(=O)n(Cc3ccc(Cl)cc3)c(=S)[nH]c2c1)N1CCCC1 | -2.3 | 4.0 | -4.6 | 6.7 | -13.8 | -8.1 | 4933 |
| COc1ccc(/C=N/OCC(=O)NC(c2ccccc2)c2ccccc2)cc1OC | · | · | · | · | -0.3 | 17.3 | 1958 |
| Fc1ccccc1CSc1ncnc2c1ncn2C1CCCO1 (stereo unspecified) | 1.8 | 11.6 | 11.7 | 1.6 | -30.2 | · | 3068 |
| O=C1CS/C(=N\c2ccccn2)N1C1CCCCC1 | · | · | · | · | -11.5 | -8.5 | 3059 |
| CCN(CC)c1ccc(NC(=O)CN2CCN(c3nc(C)cc(C)n3)CC2)cc1 | -6.5 | · | · | -0.5 | -15.7 | · | 2251 |
| Fc1ccc(/C=N/Nc2nnnn2-c2ccccc2)cc1 | · | · | · | · | -18.1 | -1.5 | 4857 |
| O=C(c1cccc(C(F)(F)F)c1)C1CCCN(C(=O)CN2CCOC2=O)C1 (stereo unspecified) | 1.4 | 5.2 | 2.9 | 1.2 | -31.6 | 0.4 | 6356 |
| O=S(=O)(Nc1ccc(Br)cc1)N1CCOCC1 | -1.2 | 2.9 | 1.4 | 1.1 | -32.8 | -0.2 | 6109 |
| O=C(CN(Cc1ccco1)C(=O)CNS(=O)(=O)c1ccc(F)cc1)NCc1ccccc1 | -1.6 | 6.1 | 1.1 | 3.1 | -29.9 | -7.1 | 4012 |
| O=C(Nc1nc(-c2ccc(F)c(F)c2)cs1)c1cc([N+](=O)[O-])ccc1N1CCOCC1 | 5.9 | 13.4 | 1.0 | 5.2 | -17.9 | -2.0 | 9768 |
| COC(=O)c1c(N)nc(C)n1-c1ccc(OC)cc1 | 7.4 | 1.2 | 3.9 | 4.3 | -24.0 | -4.1 | 3166 |
| CCOc1ccc(NC(=O)CN(C)C(=O)CC2CCCCC2)cc1OCC | -9.2 | 6.0 | 6.2 | 4.3 | -11.7 | · | 3825 |
| C/C(=C\c1ccccc1)C(=O)Nc1nc2ccc([N+](=O)[O-])cc2s1 | 1.9 | 14.1 | 4.0 | -7.0 | -38.7 | 2.1 | 2410 |
| NCCNC(=O)Cc1cccc(NC(=O)Cc2ccc(Nc3ncnc4c3ncn4[C@@H]3O[C@H](CO)[C@@H](O)[C@H]3O)cc2)c1 | · | · | · | · | 7.6 | 4.8 | 4810 |
| Cc1ccccc1NC(=O)CSCCO | 2.2 | -0.6 | 6.7 | -2.0 | -25.6 | -2.6 | 22229* |
| NCc1cccc(CNc2ccc([N+](=O)[O-])cc2C(N)=O)c1 | 6.4 | 17.1 | 9.6 | -0.5 | -6.4 | · | 2857 |
| CCOC(=O)C1CCN(C2CCN(C(=O)c3oc4c(C)c(C)ccc4c3C)CC2)CC1 | 2.6 | 2.4 | 8.8 | -2.4 | -25.3 | -10.1 | 11097 |
| Cc1cccc(N2CCN(CCc3ccccc3)CC2)c1C | 4.6 | 1.9 | 3.9 | 11.6 | 0.2 | -14.5 | 15943 |
| CCCCC(=O)Nc1ccc(NC(=O)CCCC)nc1 | -5.6 | 7.6 | 10.1 | 4.2 | -23.7 | 4.8 | 4605 |
| Cc1ccccc1CS(=O)(=O)c1cnc2ccccc2n1 | 7.4 | 17.1 | 11.8 | 10.7 | -28.1 | -1.3 | 2378 |

The listing continues:
| SMILES | Sa RN4220 lethal | Mtb hypoxia inh | Mtb hypoxia inh growth | Sa ugtP lethal | PrP UTR inh | BJeLR viability | Autofluor counter |
| --- | --- | --- | --- | --- | --- | --- | --- |
| CCN(Cc1nc2cc(OC)c(OC)cc2c(=O)[nH]1)C(=O)c1ccc(S(=O)(=O)N(C)C)cc1 | -0.2 | 5.8 | 7.3 | -16.9 | -4.5 | -15.3 | 3898 |
| NC(=O)c1ccsc1NC(=O)c1ccc(N2CCCC2=O)cc1 | 8.0 | -6.1 | -0.2 | 13.7 | -31.0 | · | 4345 |
| Cc1ccc(NC2CCCN(C(=O)CCc3scnc3C)C2)cc1C (stereo unspecified) | 1.8 | 0.3 | 12.8 | -4.0 | -17.0 | 1.6 | 5091 |
| Cc1oc(-c2cccc(Cl)c2)nc1CN1CCCC(C(=O)NCCCN2CCOCC2)C1 (stereo unspecified) | 3.4 | 17.5 | 7.9 | -4.5 | -12.4 | 0.0 | · |
| COCCOC(=O)c1[nH]c2c(c1C)C(=O)CC(c1ccco1)C2 (stereo unspecified) | 5.5 | · | · | -6.6 | -5.3 | 15.6 | 5601 |
| O=c1c2ccccc2nc(-c2ccccc2F)n1-c1ccccc1 | 5.8 | 0.1 | 10.4 | 10.5 | -35.1 | 2.4 | 3991 |
| COc1ccc(OC)c(C(=O)NC(CC(N)=O)c2ccc(NCCN3CCOCC3)c([N+](=O)[O-])c2)c1 (stereo unspecified) | 5.0 | 11.5 | 10.0 | -1.7 | -4.1 | -4.8 | 3714 |
| COc1ccccc1-c1n[nH]c(=S)n1N | 3.9 | 15.6 | 9.4 | 4.9 | -3.4 | 7.7 | 4492 |
| Cc1nc2cc(NC(=O)NCCC3=CCCCC3)ccc2o1 | -2.9 | -3.1 | -7.6 | -4.5 | -34.2 | -0.8 | 5638 |
